StopGo FLuc: lowers the firefly signal of an FMDV 2A StopGo reporter | 0.23% of 120,000 active | AID 1745856 | Potency, µM (highest dose often 57.5 µM), for the others: at the top dose signal change, negative = less light | HEK cells with a luciferase reporter of 2A StopGo recoding; active = well fitted falling curve with a large enough effect; inconclusive = small, poorly fitted or top-dose-only effect; inactive = no such curve, though single readings can be large or run the other way; also: nearly all actives have a fitted effect of over 60% in size; overnight with compound
2A Renilla: lowers the Renilla signal of an FMDV 2A StopGo reporter; Potency, µM (top dose mostly 57.5 µM), inactives show at the highest dose signal change, negative = less light; 0.32% of 120,000 active; AID 1745857; HEK cells with a luciferase reporter of 2A StopGo recoding; active means well fitted falling curve with a large enough effect; inconclusive means small, poorly fitted or top-dose-only effect; inactive means no such curve, though single readings can be large or run the other way; also: nearly all actives have a fitted effect of over 55% in size; overnight with compound
Active calls of the source: *; ? = inconclusive; & = joins results of further samples; [ ] = remark or other dose. % is scaled to controls: 0 for no effect and ±100 for the full control effect; potency is read from the fitted curve at half-maximal effect. The list is partial; rates above refer to the full screens.

mol	StopGo FLuc	2A Renilla
CC(=O)c1ccc(NS(=O)(=O)c2ccc3[nH]c4c(c3c2)CCCCCC4)cc1	-24%	-3%
Cn1nc(-c2ccc(OCC(=O)N3CCCCC3)cc2)c2ccccc2c1=O	?	?
CCCCCC/C=N/NC(=O)c1ccc(C(C)(C)C)cc1	4%	15%
Cc1nc2cc(NC(C)C(=O)Nc3c(C)cccc3C)ccc2o1 (stereo unspecified)	1%	11%
COc1ccc(NC(=O)CCS(=O)(=O)c2nc(-c3ccc4c(c3)OCO4)cc(C(F)(F)F)n2)cc1	1%	-12%
CNC(=S)NNC(=O)CCc1ccccc1	17%	11%
COC(=O)c1scc(-c2ccc(C)cc2)c1S(=O)(=O)Nc1cc(Cl)ccc1C	-7%	312%[activator]
Cc1ccc2nc(C)c(C(=O)N3CCC(C)CC3)cc2c1	-2%	2%
CCOc1ccc(-n2nnnc2CNS(=O)(=O)c2ccccc2Cl)cc1	19%	65%[activator]
COc1ccccc1CN(C)C(=O)c1n[nH]c(=O)c2ccccc12	1%	3%
CCOc1ccccc1CNc1nc2nc(C)cc(C)n2n1	-15%	22%
O=C(Nc1ccc(Br)cc1)C1CCCN(S(=O)(=O)c2ccc(Br)s2)C1 (stereo unspecified)	18%	-2%
O=C(c1ccc(F)cc1)N1CCN(Cc2ccc(F)cc2)CC1	31%[activator]	-8%
CCc1ccccc1NC(=O)c1ccc2ccccc2n1	0%	6%
CCC(C)NC(=O)Nc1ccc2c(c1)CCN2S(C)(=O)=O (stereo unspecified)	47%[activator]	10%
CCN(C(=O)Cc1noc2ccccc12)c1cc(Cl)ccc1OC	-6%	-3%
Cc1ccc(Oc2nc3c(c(=O)n(Cc4ccccc4)c(=O)n3C)n2C)cc1C	-11%	-6%
O=C(O)Cn1nnc(-c2ccc(OCc3cccc(C(F)(F)F)c3)cc2)n1	-17%	-11%
CCCC/C(C)=N/NC(=S)Nc1ccccc1	150%[activator]	11%
Cc1nc(-c2cc3ccc(OCC(=O)NCC(C)C)cc3oc2=O)cs1	117%[activator]	4%
O=C(Nc1cc(F)ccc1F)c1cnn2c(C(F)F)cc(-c3ccccc3)nc12	-20%	-12%
Cc1nc2ccc(Cl)cc2cc1C(=O)Nc1ccc(C(=O)N(C)C)cc1	-10%	-13%
COC(=O)c1ccccc1NC(=O)Cn1c(-c2ccccc2)nc(C)cc1=O	-8%	-19%
CC(C)(c1ccc(OC(=O)c2ccccc2F)cc1)c1ccc(OC(=O)c2ccccc2F)cc1	11%	3%
O=C(NC1CCCc2ccccc21)C(c1ccccc1)c1ccccc1 (stereo unspecified)	-10%	29%
O=C(COC(=O)CNC(=O)c1cccc(Cl)c1)Nc1ncc(C(F)(F)F)cc1Cl	-14%	-11%
CCNC(=O)C(C)Sc1ncc(-c2ccc(F)cc2)o1 (stereo unspecified)	141%[activator]	4%
Clc1ccc(NCc2nc3ccccc3n2CCOc2ccccc2)cc1	27%	-25%
CCCn1c(=O)n(CC(=O)Nc2ccc(N3CCOCC3)cc2)c(=O)c2c1nc(C)n2CCOC	7%	1%
O=C(Cn1c(=O)oc2cc(S(=O)(=O)N3CCCC3)ccc21)Nc1ccc(OC(F)(F)F)cc1	-22%	-19%
O=Cc1cccc2[nH]ccc12	87%[activator]	50%[activator]
CCn1c(=O)[nH]c(=O)c2cc(C(=O)Nc3ccc(C)c4ncccc34)cnc21	7%	3%
CCOc1ccc(OCC)c(Nc2cc(C)nc3nc(-c4ccco4)nn23)c1	15%	7%
COCCCn1c(=N)c(C(=O)NC2CCCC2)cc2c(=O)n3cc(C)ccc3nc21	0%	4%
O=C(Nc1ccccc1Cl)[C@H](CSCc1ccccc1)N1Cc2ccccc2C1=O	-7%	180%[activator]
O=C1/C(=C/c2ccc(-c3ccccc3)cc2)C(c2ccccc2)Oc2ccccc21 (stereo unspecified)	0%	10%
O=S(=O)(c1ccc(Cl)c(Cl)c1)N1CCN(c2ccc(Nc3ccccc3)nn2)CC1	3%	3%
Cc1ccc2c(CN(C)Cc3ccc(OC(F)F)cc3)cc(=O)oc2c1	0%	23%
Cc1cc2ccccc2n1CC(=O)NC1CCN(C(=O)C(C)C)CC1	-8%	-15%
CC(=O)c1ccc(N2CCN(C(=O)NCc3noc4ccc(C)cc34)CC2)cc1	-9%	-7%
O=C(NCc1ccc(Cl)cc1)C1CCN(C(=O)c2cnn(-c3ccccc3)c2-n2cccc2)CC1	?	?
CCCS(=O)(=O)N1CC(=O)N(c2ccc(Cl)cc2)C(C)(C(=O)NC2CCCC2)C1 (stereo unspecified)	-17%	2%
COc1ccc(N2CCN(C(=O)c3ccc(NC(=O)c4nsc5ccccc45)cc3)CC2)cc1	-3%	27%
Cc1cc(C)cc(C(=O)NCCC(=O)N2CCCC2)c1	23%	-5%
Cc1cccc(NC(=O)C(=O)NCCc2csc(-c3ccc(C(F)(F)F)cc3)n2)c1C	22%	-12%
CCn1cc(C(=O)N2CCN(c3cc(Cl)ccc3C)CC2)c(=O)c2cc(S(=O)(=O)N3CCOCC3)ccc21	-15%	49%[activator]
Cc1cc(C)cc(-n2ccn3c(CCC(=O)NCc4cccnc4)nnc3c2=O)c1	4%	-5%
Cc1ccc(CCNC(=O)c2cc3sccc3n2Cc2ccc(F)cc2)cc1	-29%	-15%
O=C(Cc1coc2cc3c(cc12)CCC3)NC1CCCCC1	24%	52%[activator]
Cc1ccccc1NC(=O)Cn1c(=O)c2c(ncn2CCC(C)C)n(Cc2ccccc2)c1=O	3%	-1%
CCc1ccc(CNC(=O)CCCN2C(=O)CCn3nc(-c4cccn4C)cc32)cc1	-4%	-9%
O=C(CN1CCN(c2nc(-c3cccs3)nc3scc(-c4ccccc4)c23)CC1)N1CCCC1	0%	0%
CCCc1noc(C(C)Nc2ccc(N3CCCC3=O)c(Cl)c2)n1 (stereo unspecified)	9%	-5%
Cc1cccc(N2CCn3c2nc2c3c(=O)n(CCCc3ccccc3)c(=O)n2C)c1	4%	-9%
C=C(C)Cn1c(=O)c2c(nc3n2CCN3c2ccc(CC)cc2)n(C)c1=O	-9%	1%
CCOc1cccc(C2c3[nH]c4ccccc4c3CCN2C(=O)CCC2CCCC2)c1 (stereo unspecified)	-20%	-12%
CCn1cnnc1SCC(=O)Nc1sc2c(c1C#N)CCC(C)C2 (stereo unspecified)	0%	-15%
CCCn1c(C)ccc(-c2noc(CCC(=O)Nc3ccc(OCC)cc3)n2)c1=O	5%	2%
CC(C)CCNC(=O)c1n[nH]c(=O)c2ccccc12	15%	-2%
O=C(CSc1nncn1CCc1cccs1)Nc1ccccc1	33%[activator]	8%

Continued.
mol	StopGo FLuc	2A Renilla
Cc1ccccc1NC(=O)c1sc2c(c1C)C(c1ccsc1)CC(=O)N2 (stereo unspecified)	43%[activator]	-5%
CCCCn1cc(S(=O)(=O)c2ccc(CC)cc2)c(=O)c2cc(F)c(N3CCCC(C)C3)cc21 (stereo unspecified)	17%	-8%
COc1ccc(Cl)cc1C(=O)NCCN1CCCCC1	-19%	-20%
CC(=O)Nc1ccc2oc(-c3ccc(C(C)(C)C)cc3)cc(=O)c2c1	158%[activator]	-1%
O=C(CCc1ncc(-c2ccccc2F)o1)Nc1ccc(F)cc1Cl	21%	-11%
CC(=O)Nc1ccc(S(=O)(=O)N2CCC(NC(=O)C3CC3)CC2)cc1	-8%	-3%
Cc1ccc2nc3c(cc(C#N)c(=O)n3-c3nnc(SCc4ccccc4Cl)s3)c(=O)n2c1	-9%	-5%
CN1CCc2c(sc3ncn4nc(CSc5nc6ccccc6o5)nc4c23)C1	-8%	-9%
CC1(C)NC(=O)N(Cc2coc(-c3ccc(Cl)cc3)n2)C1=O	163%[activator]	0%
Cc1cc(=O)oc2c(C)c(OCC(=O)NCCc3ccc(S(N)(=O)=O)cc3)ccc12	-12%	-7%
CC(C(=O)NCCSCc1cccc(Cl)c1)N(c1ccccc1)S(C)(=O)=O (stereo unspecified)	-4%	17%
CCCSc1nc2sc3c(c2c(=O)n1-c1ccc(C)cc1)CCCC3	0%	-10%
CC(Sc1cc(F)ccc1F)C(=O)Nc1ccnn1C(C)C (stereo unspecified)	-8%	10%
COc1cc2c(cc1NC(=O)CCCOc1ccccc1)oc1ccccc12	42%[activator]	19%
CC(C)n1nc(C(=O)NCCc2ccc(S(N)(=O)=O)cc2)c2ccccc2c1=O	26%	32%[activator]

Brought forward from above: 4 compounds; new compounds follow.
mol	StopGo FLuc	2A Renilla
CCCSc1nc2sc3c(c2c(=O)n1-c1ccc(C)cc1)CCCC3	0%	-10%
CC(Sc1cc(F)ccc1F)C(=O)Nc1ccnn1C(C)C (stereo unspecified)	-8%	10%
COc1cc2c(cc1NC(=O)CCCOc1ccccc1)oc1ccccc12	42%[activator]	19%
CC(C)n1nc(C(=O)NCCc2ccc(S(N)(=O)=O)cc2)c2ccccc2c1=O	26%	32%[activator]
COc1ccc(CCN2C(=O)N(c3ccc(F)cc3)C(=O)C2CC(=O)Nc2ccccc2)cc1 (stereo unspecified)	-18%	150%[activator]
CCOc1ccc(NC(=O)c2cnn3c(C(F)F)cc(-c4ccc(C)cc4)nc23)cc1	-12%	-3%
COc1ccccc1NC(=O)c1oc2ccccc2c1NC(=O)Cc1cccs1	-9%	-4%
CCOc1cc(C(=O)Nc2ccc3nc(Nc4cccc(Cl)c4)cc(C)c3c2)cc(OCC)c1OCC	-8%	1%
CCOC(=O)c1cc(OC(C)C(=O)NC)cc(C(=O)OCC)c1 (stereo unspecified)	21%	37%[activator]
O=c1c(NCCc2ccc(Cl)cc2)nccn1-c1ccccc1	104%[activator]	2%
Cc1cccc(N2CCN(C(=O)CCc3nnc4n(CC(C)C)c(=O)c5ccccc5n34)CC2)c1C	19%	-29%
CC(Sc1nc2ccccc2[nH]1)C(=O)NC1(C#N)CCCCC1 (stereo unspecified)	-18%	-27%
CC(=O)c1ccc(NC(=O)CCCc2nc(-c3cccc(C)c3)no2)cc1	20%	-1%
COc1ccc(C)c2sc(NC(=O)c3ccc(S(=O)(=O)N4CCCCC4)cc3)nc12	-18%	-17%
CCOc1ccc(S(=O)(=O)Nc2ccccc2-c2nnc3n2CCCCC3)cc1OCC	-14%	10%
COC(=O)c1c(NC(=O)C(C)Oc2ccc(Cl)c(C)c2)sc(C)c1C (stereo unspecified)	-11%	-3%
Cc1ccc2c(c1)-c1c(cnc3cc(-c4ccc(F)cc4)nn13)CO2	-12%&-2%	-12%&-1%
Brc1cccc(/C=N/Nc2ccc3ccccc3c2)c1	?	?
O=C(Cn1ccc2c(Br)cccc21)NC1CC1	14%	-8%
Fc1ccccc1-n1c(SCc2cccc(C(F)(F)F)c2)nnc1-c1cccnc1	-26%	-5%
COc1ccc2c(CNC3CCCC3)c(C(=O)O)n(Cc3ccccc3C)c2c1	-10%	-3%
CCOC(=O)c1cc(-c2ccc(C)cc2)n(CCC(=O)Nc2nc3c(C)cccc3s2)c1C	-21%	-15%
O=C(Nc1ccc(Cl)cc1Cl)c1cc(S(=O)(=O)N2CCC3(CC2)OCCO3)ccc1F	-15%	-4%
Fc1cccc(Cl)c1CNCCSc1nnnn1-c1ccccc1	8%	5%
O=C(CSc1nc2cc(Cl)ccc2s1)NC1CCCCCCC1	-26%	-23%
O=C(CSc1nnc(-c2cccnc2)n1C1CC1)c1cc2cc(Cl)ccc2o1	0%	-8%
COc1ccc(C(=O)/C=C/c2ccccc2Cl)cc1CC(=O)O	0%	?
O=C(COC(=O)CNC(=O)c1ccccc1)Nc1nnc(-c2ccccc2)o1	10%	-6%
O=C(c1ccco1)N(Cc1cccs1)c1ccc(F)cc1	-14%	3%
COc1ccc(/C=C2\Oc3cc(OC(=O)C(C)(C)C)ccc3C2=O)cc1OC	178%[activator]	23%
O=C(O)CSC(c1ccccc1)c1ccc(Cl)cc1 (stereo unspecified)	4%	8%
Cc1ccc(CNC2CCc3ccccc32)cc1 (stereo unspecified)	13%	-20%
COCCNCc1ccc(-c2cccc(C(F)(F)F)c2)o1	47%[activator]	6%
CCn1c(=O)cc(SCC(=O)NCCc2cccc(C)c2)c2ccccc21	-7%	12%

Some of the entries so far, with values under each structure:
Results follow in this order: StopGo FLuc, 2A Renilla
- Fc1ccccc1-n1c(SCc2cccc(C(F)(F)F)c2)nnc1-c1cccnc1
→ -26%, -5%
- COc1ccc2c(CNC3CCCC3)c(C(=O)O)n(Cc3ccccc3C)c2c1
→ -10%, -3%
- CCOC(=O)c1cc(-c2ccc(C)cc2)n(CCC(=O)Nc2nc3c(C)cccc3s2)c1C
→ -21%, -15%

The results go on:
mol	StopGo FLuc	2A Renilla
CCN(CC)S(=O)(=O)c1ccc2c(c1)c(=O)c(C(=O)N1CCN(c3cc(Cl)ccc3C)CC1)cn2C	-21%	-5%
O=C(CSc1ccc2c(c1)OCCCO2)Nc1ccccc1	147%[activator]	15%
COC(=O)c1ccc(COc2ccccc2/C=C2\CCc3cc(OC)ccc3C2=O)cc1	-5%	-19%
CCN(CC)c1nc(-c2cccs2)cs1	52%[activator]	35%[activator]
Cc1ccc(-c2cc(-c3ccc(Cl)cc3)c(C#N)c(N)c2C#N)cc1	0%	8%
COc1ccccc1Oc1coc2cc(OS(C)(=O)=O)ccc2c1=O	30%	0%
CC(C)n1c(SCc2nc3ccccc3o2)nc2ccccc2c1=O	?	?

Screening data: PubChem, National Center for Advancing Translational Sciences (NCATS)
